GIV-Gai inh: inhibitors of GIV peptide binding to Galpha-i3, primary screen, biochemical, fluorescence polarization, FITC-GIV GBA peptide, rat Galphai3; Guanine nucleotide-binding protein G(i) subunit alpha-3 (Rattus norvegicus), P08753; 90 min; stronger effect = lower value; scaled: aluminum fluoride 0%, vehicle 100%; percent of control (FP), % (no concentration beside the values); 210,000 compounds, 0.42% hits; AID 1224905, 2016;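 active means replicate mean at 85% of control or lower, very high polarization wells dropped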;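 further: wells of about 15 µL received 100 nL stock; the first replicate is given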
Target sequence (P08753 whole entry, looked up): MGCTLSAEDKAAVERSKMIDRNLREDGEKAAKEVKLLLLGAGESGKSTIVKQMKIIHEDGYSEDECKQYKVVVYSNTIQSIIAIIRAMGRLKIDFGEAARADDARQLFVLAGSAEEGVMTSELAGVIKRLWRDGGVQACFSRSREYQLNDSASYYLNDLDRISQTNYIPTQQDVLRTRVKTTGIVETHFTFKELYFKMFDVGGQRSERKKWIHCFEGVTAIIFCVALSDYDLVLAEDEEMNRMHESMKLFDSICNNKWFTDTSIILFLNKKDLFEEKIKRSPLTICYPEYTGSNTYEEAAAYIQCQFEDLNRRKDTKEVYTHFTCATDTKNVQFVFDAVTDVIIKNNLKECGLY
Sa growth 42C: S. aureus growth inhibition at 42 and 30 °C, primary screen, LtaS inhibitor project, RN4220, two temperatures. OD600, 20 h, 42 °C; stronger effect = lower value. relative growth, % (test concentration not listed). 170,000 compounds, 0.53% hits. AID 720641, 2013;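 active means growth at 42 °C up to 50% and 20 or more points under that at 30 °C, or under 10% at both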;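 further: 300 nL library stock went into each well; scaled to the means of positive and negative controls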
HCMV UL50-53 inh: inhibitors of HCMV UL50-UL53 interaction, biochemical, HTRF; normalized percent inhibition; inhibition, % (no concentration beside the values); 190,000 compounds, 0.15% hits;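 active means both replicates at 50% or more, plus weaker picks with an unusually low signal ratio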;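 further: stock transfer was 100 nL into about 20 µL; 0% = negative control wells and 100% = wells with untagged competitor protein; inactives centre near -12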
Sa growth 42C second temp: recorded beside Sa growth 42C, whose call it bears; relative growth, %; measured here: growth at 30 °C;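 optical density after 20 h as mean of two plates; 100% = untreated growth and lower means inhibition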
* hit, by the source's call; · = not tested or not shown; & = joins results of further samples.

Values in the order: GIV-Gai inh, Sa growth 42C second temp, Sa growth 42C, HCMV UL50-53 inh
Cc1ccc(S(=O)(=O)c2cn(C)c3cc(N4CCCC(C)C4)c(F)cc3c2=O)c(C)c1 (stereo unspecified)
  108, 80, 103, ·
Cc1noc(C)c1CSc1ncccc1C(=O)Nc1sc2c(c1C#N)CCC(C)C2 (stereo unspecified)
  ·, 95, 93, -10
CN1CCN(c2nc(-c3cccs3)cc(C(F)(F)F)n2)CC1
  106, 93, 89, -15
Cc1ccc2c(=O)cc(C(=O)NCC(c3ccc(C(C)(C)C)cc3)N(C)C)oc2c1 (stereo unspecified)
  107, ·, ·, -43
COc1cccc(NC(=O)CN2C(=O)COc3ccc(C(=O)N4CCCC4)cc32)c1
  97, ·, ·, -30
CCCCN(CCCNC(=O)Nc1cn(CC(C)C)c(=O)c2ccccc12)Cc1ccccc1
  99, ·, ·, 7
O=c1[nH]nc(-c2ncc[nH]2)c2ccccc12
  102, 106, 96, -10&-28
N/C(=N\O)C(=O)Nc1ccccc1
  ·, 93, 71, 9
CCC1CCCN1Cn1cnc2c([nH]c3ccccc32)c1=O (stereo unspecified)
  110, 90, 107, -4
Cc1cc(C)c2c(=O)cc(C(=O)Nc3sc4c(c3C(=O)NCC3CCCO3)CCCC4)oc2c1 (stereo unspecified)
  103, 88, 92, -18
O=C(Cn1c(C(=O)O)cc2ccccc21)c1ccccc1
  107, 94, 119, 7
CC(C)OCC(O)CSc1nc2ccccc2s1 (stereo unspecified)
  101, 101, 89, -9
Cc1cccc(NC(=O)c2ccc3oc(=O)c(S(=O)(=O)c4ccc(F)cc4)cc3c2)c1C
  99, 92, 98, 7
CCOc1ccc(S(=O)(=O)c2cn(C)c3ccccc3c2=O)cc1
  106, 81, 100, -26
COc1ccc(CCNC(=O)C(=O)NCC(c2ccc3c(c2)OCO3)N2CCOCC2)cc1 (stereo unspecified)
  103, 95, 104, ·
COc1cc(C2CC(C(F)(F)F)n3ncc(C(=O)N4CCN(C(c5ccccc5)c5ccccc5)CC4)c3N2)cc(OC)c1OC (stereo unspecified)
  97, ·, ·, -9
O=C(CCCc1nc(-c2cccnc2)no1)Nc1cccnc1
  109, ·, ·, -18
CCC(OC(=O)CN1C(=O)c2ccccc2C1=O)C(=O)NC1CCCC1 (stereo unspecified)
  99, 91, 107, -37
COC(=O)C1=C(NNc2ncc(Cl)cc2C(F)(F)F)CSC1
  100, 83, 88, -19
Nc1nonc1-c1nc2ccccc2n1CC(=O)N1CCN(c2ccc(F)cc2)CC1
  ·, 76, 104, -7
COc1ccc(CCN2C(=O)CC(C(=O)Nc3ccc(C(=O)O)cc3)SC2=Nc2ccccc2)cc1 (stereo unspecified)
  106, ·, ·, -28
COC(=O)c1ccccc1NC(=O)Cn1c(=O)n(CCC(=O)NCc2ccccc2OC)c(=O)c2ccccc21
  105, 98, 101, -25
Cc1ccc(O)c(NC(=O)c2cccs2)c1
  ·, 91, 93, -12
Nc1c(Cl)nc(-c2ccccc2)nc1Cl
  ·, 90, 69, -18
COC(=O)c1cc2c(ccn2-c2ccc(F)cc2)n1CC1CCCCC1
  102, 88, 82, -2
Cc1ccc(-n2nc3ccc(NC(=O)c4oc5ccccc5c4C)cc3n2)cc1
  109, 82, 99, -33
Cc1nc(C(N)=O)c2c(n1)n(-c1ccc(C)c(C)c1)c(=O)n2C
  109, ·, ·, -21
CCCn1nc(NC(=O)CCC(=O)O)c2cc3cccc(C)c3nc21
  98, 95, 90, -41
Nc1c(S(=O)(=O)O)cc(Nc2ccc(Nc3nc(Cl)nc(Nc4ccc(S(=O)(=O)O)cc4)n3)c(S(=O)(=O)O)c2)c2c1C(=O)c1ccccc1C2=O
  96, ·, ·, -95
CC1CCCCN1C(=O)COc1ccc2oc3ccccc3c2c1 (stereo unspecified)
  ·, 65, 53, -21
CCOC(=O)c1ccc(NC(=O)C2CC(=O)NC(Nc3nc4ccccc4s3)=N2)cc1 (stereo unspecified)
  106, 98, 106, -10
CCc1ccc(N2CN(Cc3ccccc3)CNC2=S)cc1
  104, 88, 117, ·
Cc1ccc(-n2nc(C)c(C(=O)O)c2-n2cccc2)cc1
  106, 93, 109, -19
CCc1nc2cccnc2n1-c1ccc(CC(=O)Nc2ccc(C)cc2)cc1
  107, 99, 101, ·
CCOC(=O)C1CCCN(C(=O)C(C)(C)Oc2ccc(Cl)cc2)C1 (stereo unspecified)
  107, 93, 112, -6
COc1ccccc1/C=N/OCC(=O)NCc1ccc2c(c1)OCO2
  ·, 102, 103, 7
O=C(CCNC(=O)Nc1ccccc1)Nc1ccc(N2CCOCC2)cc1N1CCOCC1
  ·, 83, 117, -10
CCc1noc(C)c1C(=O)N1CCCCCCC1
  102, 100, 101, -36
O=C(CCNS(=O)(=O)c1ccc2nc(-c3ccccc3)[nH]c2c1)N1CCOCC1
  103, 73, 96, ·
CC1Nc2ccccc2C(=O)N1NC(=O)c1ccc(Br)cc1 (stereo unspecified)
  ·, 82, 108, -6
CCc1cc(=O)n2[nH]c(C)c(-c3ccccc3OC)c2n1
  ·, 78, 104, -13
Cc1ccc(N2C(=O)c3cccc4c(N5CCN(C)CC5)ccc(c34)C2=O)c2cccnc12
  136, 93, 112, -42
O=C1NC(=O)C2C1C(c1ccccc1)N1C3C(=O)NC(=O)C3C(c3ccccc3)N21 (stereo unspecified)
  101, 88, 101, -5
COc1ccccc1C(=O)Nc1ccc(OCc2cc(=O)n3cccc(C)c3n2)cc1
  99, 94, 86, ·
CNc1oc(-c2ccc(S(=O)(=O)N3CCC(C)CC3)cc2)nc1C#N
  102, ·, ·, -19
CC1CCCC(NC(=O)Cn2ncc(Cl)c(Cl)c2=O)C1C (stereo unspecified)
  ·, 86, 88, -39
CC1(CSc2ccccc2C(=O)O)NC(=O)NC1=O (stereo unspecified)
  ·, 88, 96, -3
Cc1ccccc1NC(=O)CN1C(=O)c2ccccc2C1=O
  98, 92, 104, ·
COc1ccc(OCCn2c(C(F)(F)F)nc3cc4c(cc32)OCCO4)cc1
  99, ·, ·, 16
Cc1c(Cl)cccc1NC(=O)CSc1nc(=O)[nH]c2c1CCC2
  95, 88, 101, ·

Record cards, from the list above. Order of values: GIV-Gai inh | Sa growth 42C second temp | Sa growth 42C | HCMV UL50-53 inh
Listed for `Nc1nonc1-c1nc2ccccc2n1CC(=O)N1CCN(c2ccc(F)cc2)CC1` = · | 76 | 104 | -7
Listed for `COC(=O)c1ccccc1NC(=O)Cn1c(=O)n(CCC(=O)NCc2ccccc2OC)c(=O)c2ccccc21` = 105 | 98 | 101 | -25

Following part
Values in the order: GIV-Gai inh, Sa growth 42C second temp, Sa growth 42C, HCMV UL50-53 inh
Cc1ccccc1-n1c(Cn2c(=O)sc3ccccc32)n[nH]c1=S
  101, 80, 79, -53
Cc1ccc(/C(O)=C/c2nc3ccccc3[nH]2)cc1
  ·, 60, 105, -12
O=C(NCC1CCNCC1)c1ccno1
  106, 94, 93, 10
O=C(N/C=C/c1ccsc1)Sc1cc(C(F)(F)F)cc(C(F)(F)F)c1
  102, 87, 82, -6
Cn1c(=O)c2c(nc(SCC(=O)Nc3ccc(F)c(F)c3)n2Cc2ccccc2F)n(C)c1=O
  108, 98, 90, -9
COc1ccc(C(=O)NCC23C=CC(O2)C2C(=O)N(c4ccccc4C)C(=O)C23)cc1 (stereo unspecified)
  174, 90, 93, -4
COc1ccc(C2SCCN2C(=O)c2cc3cc(Br)ccc3oc2=O)cc1 (stereo unspecified)
  102, ·, ·, -17
Cc1cc(N2CCN(C)CC2)nc2ccc(NC(=O)Nc3ccc(F)cc3F)cc12
  105&106, 91, 100, 5
CCN(CC)S(=O)(=O)c1ccc2c(c1)c(=O)c(C(=O)NCCc1ccc(OC)c(OC)c1)cn2C
  104, 91, 103, -8
O=C(NCCc1nc2cccnc2n1-c1ccccc1)Nc1ccc(F)cc1
  108, ·, ·, -15

Five entries from above, tab-delimited.
SMILES	GIV-Gai inh	Sa growth 42C second temp	Sa growth 42C	HCMV UL50-53 inh
Cc1ccc(O)c(NC(=O)c2cccs2)c1	·	91	93	-12
Nc1c(Cl)nc(-c2ccccc2)nc1Cl	·	90	69	-18
COC(=O)c1cc2c(ccn2-c2ccc(F)cc2)n1CC1CCCCC1	102	88	82	-2
Cc1ccc(-n2nc3ccc(NC(=O)c4oc5ccccc5c4C)cc3n2)cc1	109	82	99	-33
Cc1nc(C(N)=O)c2c(n1)n(-c1ccc(C)c(C)c1)c(=O)n2C	109	·	·	-21

Continuation:
Values in the order: GIV-Gai inh, Sa growth 42C second temp, Sa growth 42C, HCMV UL50-53 inh
Cc1cc2oc(C(=O)N(Cc3ccco3)Cc3ccccc3Cl)c(C)c2cc1C
  104, 85, 81, 0
CCOC(=O)c1cccc(NC(=O)CSc2cc(=O)n(C)c3ccccc23)c1
  106, 94, 112, -19
CC(C)(C)c1ccc(OCc2cc(=O)n3c4c(sc3n2)CCCC4)cc1
  101, 92, 102, -35
CCN(CCC#N)c1ccccc1
  102, 107, 118, -12
Cc1ccc(Cn2c(SCC(=O)NCc3ccccc3)nc3ccsc3c2=O)cc1
  100, 93, 101, ·
CC1(C)CC(=O)c2c([nH]c(-c3ccccc3)c2-c2ccccc2)C1
  ·, 94, 104, 7
Cc1ccc(NC(=O)c2ccco2)cc1F
  ·, 72, 96, -20
Cc1ccc(C(=O)/C=C/C(=O)c2ccc(C)cc2)cc1
  108, ·, ·, -6
O=C1NN(c2ccccc2)C(=O)/C1=C\c1ccccc1
  91, 111, 106, 16
Cc1cc(=O)n2[nH]c(NCc3ccccc3)nc2n1
  106, 100, 131, -7
CCn1c(CCC(=O)Nc2ccc(N3CCOCC3)cc2)nc2cc(S(=O)(=O)N(C)C)ccc21
  ·, 82, 93, -12
O=S(=O)(c1ccc(C2CCCCC2)cc1)N(CCCN1CCOCC1)Cc1cccs1
  102, 74, 96, ·
Cn1c(=O)[nH]c(=O)c2c1nc(SCC(=O)c1ccc(Cl)cc1)n2CC(O)COc1ccc(Cl)cc1 (stereo unspecified)
  100, ·, ·, -13
O=C(NC1CCS(=O)(=O)C1)c1ccc(CN2C(=O)CCn3nc(-c4ccc(Cl)cc4)cc32)cc1 (stereo unspecified)
  100, ·, ·, -6
CC1CCN(C(=O)Cn2nc(Cc3ccncc3)c3ccccc3c2=O)CC1
  101, ·, ·, -17
CCN(CC)c1ccc(NC(=O)C2c3ccccc3Oc3ccccc32)cc1
  98, 77, 105, ·
CCOc1ccc(C(=O)Nc2ccc(N3CCCS3(=O)=O)cc2)cc1OCC
  99, ·, ·, -18
COc1c(C)c(C)cc(C)c1C
  95, 97, 103, -2
O=c1c2[nH]c3ccccc3c2ncn1Cc1ccccc1
  101, ·, ·, -30
CCOC(=O)c1sc2ncn(CC(=O)Nc3cccc(C)c3)c(=O)c2c1C
  106, 92, 101, -45
CCO/C=C1\SC(=S)N(/N=C/c2cccc(Cl)c2)C1=O
  197, 86, 107, -16
COc1ccc(Cn2c(CCC(=O)Nc3ccc(Br)c(C)c3)nc3cccnc32)cc1
  100, 91, 99, -10
CCCn1c(-c2ccc(F)cc2)n[nH]c1=O
  105, 96, 93, 17
CCOc1cc(/C=C2\C(=O)NC(=O)N(c3cccc(Br)c3)C2=O)ccc1OCC(=O)O
  110, ·, ·, -3
CCOC(=O)c1cc(-c2ccc(C)cc2)n(CC(=O)N2CCN(c3ccccn3)CC2)c1C
  100, ·, ·, 2
CC(=O)Nc1nnc(SC(C)C(=O)Nc2ccc(S(N)(=O)=O)cc2)s1 (stereo unspecified)
  103, 99, 101, -3
O=C1CCC(c2ccccc2)c2cc(Oc3c(F)c(N4CCOCC4)nc(F)c3Cl)ccc21 (stereo unspecified)
  109, 88, 87, ·
CC1(C)Cc2nc3sc4c(=O)n(CC(=O)c5ccc(Cl)cc5)cnc4c3cc2CO1
  99, 86, 102, ·
COc1ccc2oc(=O)c(-c3nc(-c4ccc(Cl)cc4)cs3)cc2c1
  101, 82, 95, ·
O=S(=O)(Nc1cccc(N2CCCS2(=O)=O)c1)c1ccc(Br)cc1
  100, ·, ·, 2
NC(=O)c1csc(-c2ccncc2)n1
  104, 87, 106, -10
Cc1cc(C)c2c(=O)cc(CSc3nnc(COc4ccccc4C)n3C)[nH]c2c1
  100, 78, 79, ·
Cc1ccc(NC(=O)Cn2nnc(-c3nc(-c4ccncc4)no3)c2N)cc1
  115, 76, 85, ·
COc1ccc(-n2nc(C(=O)NCC(=O)N3CCOCC3)c3ccccc3c2=O)cc1
  101, 98, 105, 1
CCN(CC)CCCCCCCCOC(=O)c1cc(OC)c(OC)c(OC)c1
  105, ·, ·, 2&-32
COc1ccc(NC(=O)CCSc2ccc3ccccc3n2)cc1
  101, 95, 127, ·
COc1cccc(N(C)C(=O)c2cccc(I)c2)n1
  ·, 97, 79, 6
CCC1(CC)C(=O)C(C)(C)C(=O)OC1c1ccccn1 (stereo unspecified)
  ·, 85, 99, -7
COc1cccc(C(N)=O)c1O
  ·, 76, 100, -15
Cc1ccc(N2C(=O)/C(=C/c3ccc(OC(C)C(=O)O)cc3)C(=O)NC2=S)c(C)c1 (stereo unspecified)
  103, ·, ·, -9
Cc1cc(Cl)ccc1N=C(N)NN
  107, 86, 104, 3
COC(=O)C1=CN(C(C)C)C=C(C(=O)OC)C1c1ccc(C(C)C)cc1
  101, 83, 77, ·
O=C(c1ccco1)N1CCN(C2CC(=O)N(c3ccc(F)c(Cl)c3)C2=O)CC1 (stereo unspecified)
  104, 91, 98, 2

Source: PubChem BioAssay
